E coli growth = E. coli growth inhibition, primary screen, OD600 | 330,000 tested, 0.21% active | OD600 absorbance (test concentration not listed) | Escherichia coli growth, 23 h; hits give low values;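 active = OD600 absorbance below the run mean of sample wells minus 3.6 SD, in any replicate, cut at about 0.56 in these data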;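 note: stock transfer was 300 nL into about 60 µL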
HNF4A DNA FP = change in binding of human HNF4A to DNA, primary screen, biochemical, fluorescence polarization, FITC-DNA; 360,000 tested, 0.3% active; 1 h; activity change, % at 10 µM; AID 1224865, 2016; Hepatocyte nuclear factor 4-alpha (Homo sapiens), P41235; in the data active = activity change above about 30%, passing the limit was not always enough;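 note: controls were the assay level and a saturating level of protein; the project sought stronger binding though the title names inhibitors; some compounds called inactive have numbers as strong as hits; positive values seem to mean higher polarization but the record does not say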
Target sequence (P41235 whole entry, looked up): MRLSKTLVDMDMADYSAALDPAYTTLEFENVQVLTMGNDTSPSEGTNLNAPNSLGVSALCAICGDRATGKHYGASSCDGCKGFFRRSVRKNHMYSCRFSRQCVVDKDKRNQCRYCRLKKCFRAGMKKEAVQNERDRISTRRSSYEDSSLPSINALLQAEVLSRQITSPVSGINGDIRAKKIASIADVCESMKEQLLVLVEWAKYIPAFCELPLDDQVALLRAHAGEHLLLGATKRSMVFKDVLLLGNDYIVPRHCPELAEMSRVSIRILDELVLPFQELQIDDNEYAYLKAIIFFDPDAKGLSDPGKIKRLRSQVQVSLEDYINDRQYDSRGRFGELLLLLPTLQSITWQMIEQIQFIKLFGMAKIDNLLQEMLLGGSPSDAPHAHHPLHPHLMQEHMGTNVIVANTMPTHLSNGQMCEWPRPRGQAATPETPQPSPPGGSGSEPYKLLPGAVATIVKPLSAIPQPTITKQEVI
Ecoli rRNA inh = reduced GFP signal of wild-type E. coli, primary screen, bacterial rRNA inhibitor project, GFP/RFP fluorescence, OD600, single point; GFP signal change (wild-type ribosome), % (no concentration beside the values); 350,000 tested, 1.6% active; E. coli WT GFP vs humanized-ribosome RFP mutants, 24 h; hits give low values; DMSO median 0, no signal -100;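 active = significant combined selectivity score with lowered wild-type GFP, culture density cut under 30%, mutant RFP and density less affected; inactive = any of these conditions unmet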; note: one replicate is shown; some compounds called inactive have numbers as strong as hits
Vif TR-FRET = inhibitors of Vif binding to APOBEC3G peptide, primary screen, biochemical, TR-FRET, GST-Vif 1-94, biotin-A3G peptide, dose response retest (AID 1117319); inhibition, %, or IC50 in µM where a hit was titrated; TR-FRET GST-Vif / biotin-A3G peptide binding; higher % means a stronger effect; test concentration not given here; strong numbers were not always called active; 260,000 tested, 0.57% active; Virion infectivity factor (Human immunodeficiency virus type 1 group M subtype B (isolate …;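 active = above the screen mean plus three standard deviations and confirmed in dose response; inconclusive = results disagree or hit not tested in dose response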;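 note: Vif residues 1-94 fused to GST binding biotinylated APOBEC3G peptide 110-148; 0% = full assay without inhibitor and 100% = GST in place of GST-Vif; retest series ran down from 100 µM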
ALR H2O2 inh = inhibitors of human ALR sulfhydryl oxidase, primary screen, biochemical, H2O2 detection, HRP-luminol luminescence, single point. purified ALR, DTT oxidation. AID 485317, 2010. 290,000 tested, 3.8% active. inhibition, % (no concentration beside the values). FAD-linked sulfhydryl oxidase ALR (Homo sapiens), P55789;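 active = mean and each replicate at 75% or more; inconclusive = only one of the two met; inactive = neither met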;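 note: stock transfer was 7.5 nL into about 7.5 µL; 0% = neutral wells and 100% = wells with inactivated enzyme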
Target sequence (P55789 whole entry, looked up): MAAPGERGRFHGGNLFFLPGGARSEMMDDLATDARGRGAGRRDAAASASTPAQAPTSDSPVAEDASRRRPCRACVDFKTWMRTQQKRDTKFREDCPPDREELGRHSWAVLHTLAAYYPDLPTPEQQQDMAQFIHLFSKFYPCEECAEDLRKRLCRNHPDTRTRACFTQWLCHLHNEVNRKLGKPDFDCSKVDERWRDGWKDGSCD
MLL AF4-AF9 inh = inhibitors of AF4 peptide binding to AF9, primary screen, biochemical, AlphaScreen, biotin-AF4 peptide, FLAG-AF9, single point; Protein AF-9 (Homo sapiens), P42568; inhibition, % at 10 µM; 350,000 tested, 0.47% active; AID 651704, 2012;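 active = every replicate reaching a set inhibition limit, whatever the replicate mean, cut at about 25% in these data; inconclusive = mean inhibition reaches that limit but some replicates miss it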;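 note: 0% = plate neutral control median and 100% = total signal loss; the record names both 10 and 1 µM as test concentration; the first replicate is given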
FGF22 binding = binders of human FGF22 protein, primary screen, FGF22 synaptogenesis inhibitor project, biophysical, thermal shift, single point; Fibroblast growth factor 22 (Homo sapiens), Q9HCT0; recombinant FGF22 thermal shift, SYPRO orange fluorescence; percent of sucrose octasulfate shift, DMSO zero; calls only at 9.99 µM; 340,000 tested, 1.5% active; AID 651658, 2012;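 active = melting point raised past a set limit in the mean and every replicate; inconclusive = no clear call; three in four hits are not shown here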
Target sequence (Q9HCT0 whole entry, looked up): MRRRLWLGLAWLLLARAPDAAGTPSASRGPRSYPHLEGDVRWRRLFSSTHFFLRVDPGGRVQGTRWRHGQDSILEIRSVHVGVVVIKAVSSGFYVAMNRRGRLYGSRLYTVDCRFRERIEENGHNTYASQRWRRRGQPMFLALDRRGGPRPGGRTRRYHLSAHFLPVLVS
Ecoli rRNA inh OD600 = further read-out of Ecoli rRNA inh, marked with its call; OD600 change, %; measured here: OD600 growth;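 optical density of the mix in the first replicate; 0 = DMSO median and -100 = no signal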
Ecoli rRNA inh RFP = second read-out of Ecoli rRNA inh, no call of its own (marks repeat the call); RFP signal change, %; measured here: RFP humanized mutant strains;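 first replicate; 0 = DMSO median and -100 = no signal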
* hit, by the source's call; i = inactive; ? = inconclusive; . = not tested or not shown.

SMILES	E coli growth	HNF4A DNA FP	Ecoli rRNA inh	Ecoli rRNA inh OD600	Ecoli rRNA inh RFP	Vif TR-FRET	ALR H2O2 inh	MLL AF4-AF9 inh	FGF22 binding
Cc1cc(C)cc(N(CC(=O)NCCSc2ccccn2)S(=O)(=O)c2ccccc2)c1	0.743	2.7	.	.	.	4.7%	-19.2	.	.
COc1ccc(CNC(=O)CCS(=O)(=O)c2ccc3c(c2)NC(=O)CS3)cc1	0.698	4.4	-0.5	-7.3	1.3	.	-0.7	-5.3	i
Cc1c(O)ccc2c(=O)c(-c3nncn3-c3ccccc3)coc12	0.698	-0.6	11.0	10.0	-1.0	-1.9%	.	0.8	i
Cn1cnc(S(=O)(=O)N2C[C@@H](O)COC[C@@H]3O[C@@H](CC(=O)NCc4ccc(F)cc4)CC[C@H]32)c1	.	.	-2.8	-0.4	-2.8	.	.	-0.4	i
CCCCNC(=S)NCc1ccc2[nH]c(C)cc2c1	0.777	5.0	-1.4	10.4	14.9	-1.3%	-9.4	4.1	i
COc1ccc2c3c(n(C)c2c1)[C@H](CO)N(Cc1ccccc1Cl)CC31CN(C(=O)CC2CC2)C1	.	.	-7.7	-44.1	19.4	.	.	1.2	i
COC(=O)[C@@H]1[C@@H](CO)[C@@H]2Cn3c(ccc(-c4ccccc4F)c3=O)[C@@H]2N1Cc1cccnc1	.	.	-2.4	-2.7	-0.8	.	.	-1.7	i
O=C(O)c1ccccc1SCC(=O)N1c2ccccc2Sc2ccccc21	0.679	2.1	-25.9	-20.3	44.6	13.8%	1.2	-0.3	i
Cc1ccc(NC(=O)c2sc(N)nc2-c2ccc([N+](=O)[O-])cc2)c(C)c1	0.73	-3.5	5.2	-1.4	-5.0	21.4%	0.3	29.8*	i
CCN(c1ccccc1)S(=O)(=O)c1cc(NC(=O)COC(=O)C2CC2)ccc1Cl	0.645	2.2	-12.3	-2.1	-6.7	-0.6%	5.1	-2.2	i
NC(=O)C1CCN(C(=O)C2CCN(C(=O)Nc3ccccc3)CC2)CC1	0.697	-2.5	0.4	2.1	-0.9	1.1%	.	4.4	i
O=C1c2ccccc2C(=O)N1CC1=CCS(=O)(=O)C1	0.76	-1.3	.	.	.	-0.5%	-5.1	.	.
C[C@H](CO)N1C[C@H](C)[C@@H](CN(C)S(=O)(=O)c2ccc(Cl)cc2)Oc2ccc(NC(=O)CCCN(C)C)cc2C1=O	.	.	5.8	8.9	-0.1	.	.	-0.9	i
COc1ccc(/C=C2\SC(=S)N(NS(=O)(=O)c3ccccc3)C2=O)c(OC)c1	0.648	6.1	-25.5	-31.4	-4.5	-2.6%	70.9	0.7	i
Cc1ccc(S(=O)(=O)NCC[C@@H]2CC[C@H](NC(=O)NC(C)C)[C@@H](CO)O2)cc1	.	.	3.8	7.0	0.7	.	.	1.2	i
c1ccc2c(c1)nnn2CNc1nccs1	0.712	2.9	16.1	16.7	-4.7	-7.8%	98.5*	6.3	i
[N-]=[N+]=CC(=O)C(Cc1ccccc1)N1C(=O)c2ccccc2C1=O (centres undefined)	0.746	2.2	.	.	.	4.7%	26.6	.	.
CCC(=O)N1CCC2(CC1)CN(CC1CCOCC1)[C@H](CO)c1c2c2ccc(OC)cc2n1C	.	.	11.2	11.8	-3.4	.	.	-3.9	i
CC(C)Cn1c(N)c(C(=O)NCc2cccs2)c2nc3ccccc3nc21	.	6.6	.	.	.	74.2%	-34.3	.	.
C[C@@H]1CN([C@H](C)CO)S(=O)(=O)c2ccc(-c3ccncc3)cc2O[C@@H]1CN(C)Cc1cncnc1	.	.	-1.7	3.4	1.9	.	.	-0.5	i
CCCC(=O)Nc1nc(C(=O)OCC)cs1	0.636	2.0	.	.	.	-6.9%	-6.5	.	.
COc1ccc(NC(=O)N(C)C[C@@H]2Oc3ncc(C#CCC(C)C)cc3C(=O)N([C@@H](C)CO)C[C@@H]2C)cc1	.	.	-3.7	-10.0	1.2	.	.	-14.6	i
O=C(C[C@H]1C=C[C@H](NC(=O)Nc2ccc(F)cc2)[C@H](CO)O1)NCc1cccc(F)c1	.	.	1.0	4.4	1.0	.	.	-2.1	i
CCOC(=O)CCC(=O)N1CCOCCOCCN(C(=O)CCC(=O)OCC)CCOCCOCC1	0.699	-0.6	.	.	.	-7.5%	1.3	.	.
COc1cccc(C#Cc2cnc3c(c2)C(=O)N([C@H](C)CO)C[C@H](C)[C@H](CN(C)C)O3)c1	.	.	-3.5	0.4	-0.5	.	.	1.9	i
Cn1c(=N)n(CC(=O)c2ccccc2)c2ccccc21	0.672	3.3	3.0	1.1	-1.0	?	-2.6	-5.0	i
COc1ccc(N2CCN(C(=O)CSc3ncnc4scc(-c5ccc(C)cc5)c34)CC2)cc1	0.747	5.1	.	.	.	-6.7%	-23.2	.	.
CN1CCC(=NNC(=O)CN(c2ccc(Oc3ccccc3)cc2)S(C)(=O)=O)CC1	0.602	0.7	6.2	7.3	-2.4	6.7%	1.2	4.7	i
COc1ccc(N=c2oc3ccc(OC)cc3cc2-c2nc3ccccc3[nH]2)cc1	0.763	-0.6	.	.	.	8.4%	-4.8	.	.
CCc1ccc(N2CC(C(=O)OCC(=O)c3c(N)n(CC(C)C)c(=O)n(C)c3=O)CC2=O)cc1 (centres undefined)	0.697	-0.1	4.9	10.5	0.3	3.1%	-0.4	-17.2	i
CC(C)CN(CC(C)C)C(=O)Nc1ccccc1F	0.711	-1.6	13.1	14.9	0.9	.	-1.5	-1.2	i
Cc1nc(NC(=O)c2ccc(Br)o2)ccc1Br	0.708	1.1	3.4	-1.2	-1.8	-4.4%	.	0.9	i
O=C(C[C@H]1C[C@@H]2c3cc(NC(=O)NC4CCCCC4)ccc3O[C@@H]2[C@@H](CO)O1)NCC1CC1	.	.	-1.8	-6.4	-1.4	.	.	-1.4	i
O=C(COC(=O)c1cc(-c2cccc3ccccc23)nc2ccccc12)NC1CCS(=O)(=O)C1 (centres undefined)	0.697	-25.8	2.3	-15.3	27.2	5.2%	-7.5	6.7	i
COc1cccc(NC(=O)CSc2ccccn2)c1	0.637	-0.3	.	.	.	-3.0%	89.9*	.	.
COc1ccccc1N1CCN(C(=O)CSc2nc3ccccc3[nH]2)CC1	0.707	-1.8	-40.5*	-23.6*	0.9*	-3.5%	18.2	-11.6	i
COCCN(Cc1cc2ccc(C)c(C)c2nc1Cl)C(=O)N1CCOCC1	0.623	-1.6	-5.4	-2.3	-2.1	-17.4%	0.4	-2.3	i
C[C@@H]1CN([C@@H](C)CO)C(=O)Cc2cc(NS(=O)(=O)c3ccc(Cl)cc3)ccc2O[C@@H]1CN(C)Cc1ccc(Oc2ccccc2)cc1	.	.	3.6	7.9	0.0	.	.	0.3	i
Cc1cc(C)n(C(=O)CNc2ccccc2Cl)n1	0.712	-0.7	.	.	.	.	-4.8	.	.
O=C(Nc1cccc(S(=O)(=O)N2CCCC2)c1)c1cc(-c2ccccn2)nc2ccccc12	0.691	2.5	0.8	8.6	4.5	-2.5%	-2.4	5.4	i
CC(C)CC(=O)NC(NC(=S)Nc1cccc2cccnc12)C(Cl)(Cl)Cl (centres undefined)	0.742	-2.9	.	.	.	11.9%	-29.4	.	.
Cn1nc(-c2ccc(OCC(=O)Nc3cccnc3)cc2)c2ccccc2c1=O	0.69	1.9	.	.	.	-6.2%	-14.2	.	.
Cc1sc2nc(CSCC(=O)NC(C)(C)C)[nH]c(=O)c2c1C	0.661	17.8	6.0	10.9	3.5	1.5%	98.8*	1.1	i
C[C@@H]1CN([C@@H](C)CO)C(=O)c2cc(C#Cc3ccc(F)cc3)cnc2O[C@@H]1CN(C)S(C)(=O)=O	.	.	3.9	1.7	-1.1	.	.	-0.1	i
COc1ccc(NC(=O)C2CCN(C(=O)NCc3ccccc3)CC2)cc1	0.612	-0.6	.	.	.	-1.1%	-12.3	.	.
Cc1ccc(S(=O)(=O)N(C)C[C@@H]2Oc3ccc(NC(=O)Nc4cccc5ccccc45)cc3CC(=O)N([C@@H](C)CO)C[C@@H]2C)cc1	.	.	6.7	21.1	-0.2	.	.	1.7	i
O=C(N/N=C/c1ccccc1O)c1ccncc1	.	-1.3	.	.	.	.	-1.8	-2.6	i
C=CCN(CC=C)C(=S)Nc1ccccc1	0.743	-1.8	.	.	.	4.1%	-3.2	.	.
CC1SC(c2cccc(Cl)c2)NC1=O (centres undefined)	0.675	0.0	.	.	.	-0.6%	37.9	.	.
OCCC1CN(Cc2ccc3nsnc3c2)CCN1CCc1ccccc1 (centres undefined)	0.698	3.6	.	.	.	9.7%	-2.7	.	.
C[C@@H]1CN([C@H](C)CO)C(=O)Cc2cc(NC(=O)C3CCCCC3)ccc2O[C@@H]1CN(C)C(=O)Nc1cccc2ccccc12	.	.	0.5	-1.7	0.1	.	.	-2.2	i
Cc1ccc(S(=O)(=O)N2CCN(C(=O)COC(=O)CC(C)c3ccccc3)CC2)c(C)c1 (centres undefined)	0.629	1.7	-7.8	-31.6	2.6	9.8%	.	-23.6	i
O=C(C1CCC(CNS(=O)(=O)c2ccc(F)cc2)CC1)N1CCOCC1 (centres undefined)	0.754	0.3	15.0	15.1	-3.9	-13.9%	-0.3	-3.0	i
CC[N+](CC)(CC)CC(=O)Nc1ccc(SC(F)F)cc1	0.713	-1.6	18.1	-0.8	1.2	.	-10.8	-1.6	i
CO[C@H](CN(C)S(=O)(=O)c1ccccc1)[C@H](C)CN(C(=O)Nc1ccccc1F)[C@@H](C)CO	.	.	-2.9	-4.1	2.5	.	.	0.1	i
O=S(=O)(c1cccc(Cl)c1Cl)N1CCN(C(=S)NCCCN2CCOCC2)CC1	0.679	-4.5	-6.5	-7.5	0.5	2.6%	-21.1	2.2	i
N#C/C(C(=O)c1ccccc1)=C1/CCCN1	0.654	0.6	.	.	.	-4.1%	-11.9	.	.
COc1ccc(CCNC(=O)CSc2ccc(-c3ccco3)nn2)cc1	0.703	1.7	9.4	4.8	1.4	24.5%	42.6	-1.0	i
O=S(=O)(c1ccc(F)cc1)N1CCCc2nc(-c3ccccc3)ccc21	.	.	-6.5	-17.9	1.8	.	.	-1.8	.
COc1nnc(-c2ccc(N3CCOCC3)c(NC(=O)c3ccc(C)cc3)c2)c2ccccc12	0.76	-0.4	.	.	.	6.7%	-8.9	.	.
CC1CC(=O)N(c2ccc(Br)cc2)C(=O)C1	0.69	3.2	7.6	1.9	-1.4	3.1%	.	.	i
Cc1ccc(NC(=O)c2ccc(NS(=O)(=O)c3cccc4cccnc34)cc2)cc1	0.701	-6.0	1.1	1.3	-1.6	-1.2%	-2.1	.	.

Compound profiles, as listed above:
Record of COCCN(Cc1cc2ccc(C)c(C)c2nc1Cl)C(=O)N1CCOCC1 : E coli growth = 0.623; HNF4A DNA FP = -1.6; Ecoli rRNA inh = -5.4; Ecoli rRNA inh OD600 = -2.3; Ecoli rRNA inh RFP = -2.1; Vif TR-FRET = -17.4%; ALR H2O2 inh = 0.4; MLL AF4-AF9 inh = -2.3; FGF22 binding = i
Record of O=C(C[C@H]1C=C[C@H](NC(=O)Nc2ccc(F)cc2)[C@H](CO)O1)NCc1cccc(F)c1 : E coli growth = .; HNF4A DNA FP = .; Ecoli rRNA inh = 1.0; Ecoli rRNA inh OD600 = 4.4; Ecoli rRNA inh RFP = 1.0; Vif TR-FRET = .; ALR H2O2 inh = .; MLL AF4-AF9 inh = -2.1; FGF22 binding = i

Source: PubChem BioAssay (several laboratories)

Some of the compounds tested, so the mix of outcomes need not match the whole.
